# High-throughput results as filed in PubChem BioAssay.
# Vaccinia Venus: qHTS for Stage-Specific Inhibitors of Vaccinia Orthopoxvirus: Venus Reporter Primary qHTS; Vaccinia virus Venus reporter expression, fluorescence; Potency, µM (doses to about 36.5 µM), without a hit: at the highest dose activity change, negative = inhibition, actives largely listed as inhibitors; 0.46% of 330,000 active; AID 720580, 2013; active means well fitted inhibition curve with a large enough effect; inconclusive means small, poorly fitted or top-dose-only effect; inactive means no such curve, though single readings can be large or run the other way; tested in A549 cells; note: nearly all actives have a fitted effect of over 30% in size; inactives centre near -10
# VACV mCherry inh: qHTS for Stage-Specific Inhibitors of Vaccinia Orthopoxvirus: mCherry Reporter Primary qHTS; Vaccinia virus mCherry reporter infection, fluorescence; about a quarter of the inactives have no number; Potency, µM (highest dose often 36.5 µM), for inactives: top-dose activity change, negative = inhibition, actives largely listed as inhibitors; 0.63% of 310,000 active; active = well fitted inhibition curve with a large enough effect; inconclusive = small, poorly fitted or top-dose-only effect; inactive = no such curve, though single readings can be large or run the other way; tested in A549 cells; note: nearly all actives have a fitted effect of over 35% in size; inactives centre near -10
# Active calls of the source: *; i = inactive; u = inconclusive; x = no result given; [ ] = remark or other dose. % is set by controls: 0 for no effect and ±100 for the full control effect; potency is the fitted concentration of half-maximal effect.
molecule	Vaccinia Venus	VACV mCherry inh
O=C(NCCN1CCN(c2ccccc2)CC1)c1ccc2c(c1)[nH]c(=S)n1c3ccccc3nc21	-8%	i
COc1ccc(NS(=O)(=O)c2c(C)n(C)c(=O)n(C)c2=O)cc1OC	1%	-21%
CCOC(=O)Cn1c(=O)n(C2CCCCC2)c2nc(-c3ccc(Cl)cc3)nc(C(N)=O)c21	-23%	-28%
COc1ccc(NC(=O)CSc2nnc3c(n2)[nH]c2ccc(S(=O)(=O)N(C)C)cc23)c(OC)c1	-20%	-20%
Cc1cnnc2c1-c1no[n+]([O-])c1CC2	-7%	i
CCNC(=O)C1(C)CCCN(C(=O)c2cc3ccccc3s2)C1 (stereo not drawn)	-6%	10%
COc1ccc(/C=N\NC(=O)c2ccccc2F)cc1COc1ccc(F)cc1	-15%	-5%
C/C=N/NC(=O)CCNC(=O)c1ccccc1	-22%	-14%
CCn1nc(NC(=O)c2ccco2)c2cc3ccc(C)cc3nc21	-17%	-6%
O=C(COC(=O)CN1C(=O)NC2(CCCC2)C1=O)Nc1ccccc1C(F)(F)F	-2%	-21%
CCn1cc(C(=O)NCCc2ccccc2)c(=O)c2cc(S(=O)(=O)N(C)C)ccc21	-16%	i
CCCc1nc2c3ccccc3ccn2c1CC(C)(C)C	-10%	i
COc1ccc(-n2nc(C(=O)NCC(=O)N3CCN(C)CC3)c3ccccc3c2=O)cc1	-3%	10%
C/C=C/C(=O)OCC(=O)Nc1ccc(SC(F)F)cc1	-15%	-20%
c1cncc(OC2CCN(Cc3ccc4c(c3)CN(Cc3nc5ccccc5s3)CCO4)CC2)c1	8%	-9%
O=c1cc(CCc2ccccc2)[nH]c(=O)[nH]1	10%	13%
CC(C)C12CN3CCN(CC(C3)/C1=N\O)C2	-13%	-2%
CC1CCN(C(=O)COC(=O)CCCN2C(=O)c3cccc4cccc(c34)C2=O)CC1	-15%	-8%
O=C1CC(c2cccc(Cl)c2)Cc2nc(N3CCOCC3)ncc21 (stereo not drawn)	-28%	x
COc1cccc(C(=O)c2sc3nc(-c4ccccc4)cc(C(F)(F)F)c3c2N)c1	6%[7.34 µM]	-5%[7.34 µM]
CN1CCOc2cc(S(=O)(=O)N3CCN(c4nc(-c5cccs5)nc5ccccc45)CC3)ccc21	-19%	i
CC(C)c1c(O)ccc2c1CC[C@H]1C(C)(C)CCC[C@]21C	u	-23%
O=C(CN1CCN(Cc2ccc(F)cc2)C1=O)NCc1cccs1	-11%	i
Cc1cc(=O)c2c(O)cc(O)c(C)c2o1	-19%	-6%
NNC(=O)c1cc2c(ccc3ccccc32)o1	-14%	-8%
N#C/C(=C\c1cccc(Br)c1)C(=O)N1CCCCC1	3%	-13%
CC(C)c1ccc(NC(=O)c2cnc3sc(N4CCOCC4)nn3c2=O)cc1	u	i
COc1cc(C2C3=C(CCCC3=O)Nc3[nH]n(-c4ccccc4)c(=O)c32)ccc1OC(C)=O (stereo not drawn)	-13%	-8%
O=CNc1cc(-c2ccc(C(=O)NC3CC3)cc2)cn2c(-c3ccc(F)c(Cl)c3)cnc12	-29%	u
C=CCn1cc(C(=O)NCCCOC)c(=O)c2cc(S(=O)(=O)N3CCC(C)CC3)ccc21	-12%	-15%
Cc1ccc(NC2(C(N)=O)CCCC2)cc1	1%	u
[N-]=[N+]=Nc1nc2c(N)ncnc2n1C1OC(CO)C(O)C1O (stereo not drawn)	13µM*	8.9µM*
Cc1ccc2[nH]c3c(Cl)ncnc3c2c1	-11%[7.34 µM]	-1%[7.34 µM]
O=c1c2ccccc2[nH]c(=S)n1-c1cccnc1	-14%	i
COc1ccc(/C=C/C(=O)N(C)C2(C)CCS(=O)(=O)C2)cc1 (stereo not drawn)	-15%	-6%
O=C(Nn1cc(C(=O)Nc2ccccc2F)c2ccccc2c1=O)c1cnccn1	-8%	-13%
O=C(CSc1nnc(-c2ccncc2)n1Cc1ccco1)Nc1cccc(O)c1	-6%	-22%
O=C(Cc1ccccc1)NCCSCc1ccccc1	-9%	-16%
CC(C)c1ccc2c(c1)C1Cc3ccccc3C1N2 (stereo not drawn)	-6%	u
COc1ccc(Nc2ncc(C(=O)N3CCN(c4cccc(Cl)c4)CC3)c3ccccc23)cc1	-19%	-17%
COc1cc2ccccc2cc1C(=O)Nc1ccc2oc(-c3ccc(Cl)cc3)nc2c1	u	u
Cc1ccc(Cn2nc(C)c(/C=N/NC(=O)c3cccnc3)c2C)cc1	-5%	-15%
O=C(N/N=C/c1ccc2cccc(OCc3ccccc3)c2n1)c1ccc(Br)cc1	u	-15%
O=C(Oc1cccc2cccnc12)c1ccc2c(c1)OCCO2	-18%	i
COc1cc(Cl)c(C)cc1NC(=O)c1cnn(-c2ccc(C)cc2)c1-n1cccc1	-8%	-9%
Cc1ccc(NC(=O)Cn2c(=O)n(Cc3ccc4c(c3)OCO4)c(=O)c3ccc(C(=O)NC4CCCCC4)cc32)c(C)c1	8%	10%
COc1ccc(S(=O)(=O)N(C)C[C@@H]2OCc3cn(nn3)CCCC(=O)N([C@@H](C)CO)C[C@H]2C)cc1	-10%	i
CC(C)NC(=O)C1(C)CCN1C(=O)C1(c2ccccc2)CC1 (stereo not drawn)	8%	46%[activator]
COc1ccc(C(=O)Nn2cnc3scc(-c4cccs4)c3c2=O)c(O)c1	-16%	-15%
O=C(Nc1ccccc1)c1ccc(CN2CCC(Cc3ccccc3)CC2)cc1	-18%	x

# Next results.
molecule	Vaccinia Venus	VACV mCherry inh
CCOc1ccc(-c2cc3c(=O)n(Cc4nc(-c5ccccc5OCC)oc4C)ccn3n2)cc1Cl	-7%	24%
Cc1ccc(C2=Nc3ccccc3N(CC(=O)Nc3ccccc3F)C(=O)C2)cc1C	-12%	-2%
Cc1ccccc1CSc1nc2c([nH]c3ccccc32)c(=O)n1C	-9%	-14%
CCCCc1nnc2c(N(C)S(=O)(=O)c3ccc(C)cc3)nc3ccccc3n12	-14%	i
O=C(CSc1nc2[nH]c(=O)cc(O)c2s1)Nc1cc(Cl)cc(Cl)c1	-2%	-17%
COc1ccccc1C1CC(=O)Oc2cc(O)ccc21 (stereo not drawn)	-19%	i
Cn1c(=O)c(=O)n(C)c2cc(S(=O)(=O)NCCOc3ccccc3)ccc21	-2%	i
CCc1cc(=O)oc2c(C)c(OCC(=O)NCC3CCC(C(=O)O)CC3)ccc12 (stereo not drawn)	-5%	-9%
CCOC(=O)C1CCN(C(=O)c2ccc(S(=O)(=O)Nc3ccccc3Cl)cc2)CC1	-5%	-6%
COc1ccc(C(=O)N2CCN(C(=O)c3cc(OC)c(OC)c(OC)c3)CC2)cc1	-23%	x
Cc1ccc(NC(=S)N(CCN(C)C)Cc2cc3cc(C)ccc3[nH]c2=O)cc1	-10%	-2%
Cc1sc2ncn(CC(=O)Nc3ccccc3F)c(=O)c2c1-c1ccccc1	-6%	-17%
O=C1CC(c2ccccc2)CN1C(=O)c1cccc([N+](=O)[O-])c1 (stereo not drawn)	-5%	-12%
O=Cc1ccc(-c2c(-c3ccccc3)oc3c2C(OCCCCO)CCC3)o1 (stereo not drawn)	-3%	2%
CCOc1cc(NC(=S)NCCCN2CCOCC2)c(OCC)cc1NC(=O)c1cccs1	-5%	-12%
O=C(c1cc(=O)c2cc(Cl)ccc2o1)N1CCN(Cc2ccccc2)CC1	-7%	-13%
COc1ccc(C(CCN2CCN(c3ccccc3)CC2)c2c(OC)cc(OC)c3c(-c4ccccc4)cc(=O)oc23)cc1 (stereo not drawn)	-14%	-10%
O=C(COC(=O)c1cc2ccccc2cc1O)NC(=O)NCc1ccco1	5%	-2%
Nc1cc(=O)[nH]c(SCC(=O)Nc2cccc([N+](=O)[O-])c2)n1	-13%[7.34 µM]	-1%[7.34 µM]
C[C@H]1CN([C@@H](C)CO)C(=O)CCCn2nncc2CO[C@H]1CN(C)C(=O)CCC(F)(F)F	-6%	i
COc1ccc([C@@H]2OC2(C(N)=O)C(N)=O)cc1	-2%	-6%
CCOc1ccc(-c2cc(C(=O)N/N=C(\C)c3cccnc3)c3ccccc3n2)c(OCC)c1	5%	-3%
COc1ccccc1NC(=O)c1ccccc1NC(=O)c1ccccn1	-14%	-3%
c1ccc2c(CCN3CCNC[C@H]3Cc3cccc4ccccc34)cccc2c1	-23%	-12%
FC(F)Oc1ccc(NC(=S)NNc2ccnc3cc(Cl)ccc23)cc1	-11%	-11%

# Other records
# Order of values: Vaccinia Venus, VACV mCherry inh
- CCOc1cc2[nH]c(=S)n(CCCOC)c(=O)c2cc1OCC
 : -13%, -15%
- CCN1C(=O)N[C@@H](c2ccco2)C(C(C)=O)=C1C
 : -4%, -30%
- Cc1c(C(=O)NCc2ccccc2)oc2c1C(=O)CCC2
 : -8%, x
- Cc1cccc(NC(=O)CSc2nccn2Cc2ccc(F)cc2)c1C
 : -6%, i
- CCC1(C2CCN(Cc3cccc4ccccc34)CC2)NC(=O)N(Cc2ccc3c(c2)OCO3)C1=O (stereo not drawn)
 : -28%, -13%
- O=C(COC(=O)c1ccccc1F)NC1CCCC1
 : -7%, -6%
- CC(=O)N1c2ccccc2C(C)(c2ccc(C)cc2)CC1(C)C (stereo not drawn)
 : 5%, 2%
- CCN(CC)C(=O)CSc1nnc(-c2cccnc2)n1Cc1ccccc1
 : -23%, i
- Clc1ccc(CSc2ccc(-c3ccco3)nn2)cc1
 : -4%, -3%
- O=C(C[N+]12CN3CN(CN(C3)C1)C2)c1ccc(Cl)cc1
 : 7%, 13%

# Single values from the list.
# CCN(CC)C(=O)CSc1nnc(-c2cccnc2)n1Cc1ccccc1 in Vaccinia Venus → -23%
# CCOc1cc2[nH]c(=S)n(CCCOC)c(=O)c2cc1OCC in VACV mCherry inh → -15%
# CC(=O)N1c2ccccc2C(C)(c2ccc(C)cc2)CC1(C)C (stereo not drawn) in VACV mCherry inh → 2%

# Next records follow:
# Order of values: Vaccinia Venus, VACV mCherry inh
- C#CCn1c(C2CC(=O)N(c3ccc(OCC)cc3)C2)nc2ccccc21 (stereo not drawn)
 : 4%, -7%
- Cc1ccc(S(=O)(=O)NC(=O)Nc2ccc(N(C)C)cc2)cc1
 : u, u
- COCCN=C1Sc2nc3cc(C)c(C)cc3cc2CN1Cc1cccs1
 : 0%, i
- COc1ccc(C(=O)Nn2c(SCc3cccc([N+](=O)[O-])c3)nc3ccccc3c2=O)cc1
 : -4%, i
- CCOC(=O)CN(c1ccccc1)S(=O)(=O)c1ccc(F)cc1
 : -12%, -5%
- CCn1c(COc2ccc3c(c2)OCO3)nnc1SCC(=O)c1ccc(Cl)cc1
 : 2%, -8%
- COc1ccc(CCN2C(=O)CN(C3CCCCCC3)C(=O)C2c2ccc(C)cc2)cc1OC (stereo not drawn)
 : -15%, -12%
- C#CCOCCOCCOCCNc1nc(N2CCN(C(=O)[C@H](CCCN=C(N)N)n3cc(C(N)[C@@H](C)CC)nn3)CC2)nc(N2CCN(C(=O)[C@H](CC(N)=O)n3cc([C@@H](N)CC(N)=O)nn3)CC2)n1 (stereo partly drawn)
 : 2%, -18%
- CC1(C)OC(=O)C(=CNC(Cc2c[nH]c3ccccc23)C(=O)O)C(=O)O1 (stereo not drawn)
 : -7%, -11%
- O=C(NCc1cccs1)Nc1cccc(Cl)c1
 : u, -6%

# Some of these compounds in order of count of non-hydrogen atoms, low to high:
# Order of values: Vaccinia Venus, VACV mCherry inh
- Cc1ccc(S(=O)(=O)NC(=O)Nc2ccc(N(C)C)cc2)cc1
 : u, u
- C#CCn1c(C2CC(=O)N(c3ccc(OCC)cc3)C2)nc2ccccc21 (stereo not drawn)
 : 4%, -7%
- CCn1c(COc2ccc3c(c2)OCO3)nnc1SCC(=O)c1ccc(Cl)cc1
 : 2%, -8%

# More results follow.
# Order of values: Vaccinia Venus, VACV mCherry inh
- CN(C)CC(C)(C)CNC(=S)NCc1ccc2c(c1)OCO2
 : -18%, -6%
- O=C(c1cccc(S(=O)(=O)N2CCOCC2)c1)N1CCN(S(=O)(=O)c2cccs2)CC1
 : -12%, -7%
- CCOC(=O)CNNC(=O)Nc1ccc(Cl)c(Cl)c1
 : -7%, -8%
- Cc1ccc(Cc2nc3ccccc3nc2SCC(=O)N2CCN(c3ccc(F)cc3)CC2)cc1
 : -1%, -15%
- Cc1ccc(CNC(=O)CN(c2ccc(Cl)cc2Cl)S(=O)(=O)c2ccccc2)cc1
 : -16%, -21%
- CC1(C(=O)NCc2cccs2)Cc2c(-c3ccc4c(c3)OCO4)ccnc2O1 (stereo not drawn)
 : -27%, u
- CNC(=O)c1ccc(CSc2nc3cccnc3n2Cc2cccc(F)c2)cc1
 : -5%, -14%
- O=C1NC[C@H](c2ccccc2)N(CCC23CC4CC(CC(C4)C2)C3)C1=O
 : -8%, i
- Cc1ccc(Nc2nnns2)cc1C
 : u, u
- Cc1onc(-c2c(Cl)cccc2Cl)c1C(=O)NC1CCCCC1
 : -11%, -10%
- COc1ccc(CNS(=O)(=O)NCc2ccccc2)cc1OC
 : -17%, -5%
- O=C(O)C1CCCN1C1=NS(=O)(=O)c2ccccc21 (stereo not drawn)
 : -4%, i
- CCOc1ccc(-c2cnc3n2CCC3)cc1
 : -20%, -20%
- CCOC(=O)C1=NOC(Cn2cc(C(C)=O)c(=O)[nH]c2=O)C1 (stereo not drawn)
 : -13%, -16%
- O=C(Nc1ccn(Cc2ccccc2F)n1)c1ccc(COc2cccc(Br)c2)cc1
 : u, -13%
- O=C(O)c1cc(S(=O)(=O)Nc2ccccc2C(=O)O)ccc1O
 : -8%, -14%
